Menin-MLL FL inh: qHTS Assay for Inhibitors Targeting the Menin-MLL Interaction in MLL Related Leukemias: Competition With Fluorescein Labeled MLL-derived Peptide | FP activity change, % at 61.4 µM | 290,000 tested, under 10 active | Fluorescence polarization, fluorescein-MLL peptide displacement from menin; inconclusive = falling polarisation curve, or a change in total fluorescence; inactive = total fluorescence flat and polarisation flat or rising; no compound was filed as active; the % refers to the polarisation; negative = inhibition;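 note: % of control where 0% means no effect; inhibitors lower the polarisation; unlabelled MLL peptide was the positive control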
Sfp inh: qHTS Assay for Inhibitors of Bacillus subtilis Sfp phosphopantetheinyl transferase (PPTase); Biochemical Sfp PPTase activity, qHTS; Potency, µM, for inactives: max response, negative = inhibition, actives largely listed as inhibitors; actives 3.5% (n = 310,000); active = well fitted inhibition curve with a large enough effect; inconclusive = small, poorly fitted or top-dose-only effect, or another doubt; inactive = no such curve, though single readings can be large or run the other way;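 note: the enzyme is Sfp with the accession as filed and its product quenches rhodamine fluorescence; potency is the fitted concentration of half-maximal effect; 0% = enzyme reaction without inhibitor and -100% = no enzyme wells; top concentration of the series not given in the record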
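After 15 min at room temperature with compound, 15 nM Sfp received 5 uM rhodamine-CoA plus 12.5 uM BHQ-2-ybbR (50 mM Hepes pH 7.6, 10 mM MgCl2). Rate came from the fluorescence difference over 30 min, ex 525/em 598 nm.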
gsp ag: qHTS for Agonist of gsp, the Etiologic Mutation Responsible for Fibrous Dysplasia/McCune-Albright Syndrome: qHTS | gsp mutant cells, cAMP HTRF, 30 min; control for the full effect not named in the record | Potency, µM (highest dose often 76.9 µM), inactives show top-dose activation (cAMP increase), usual class: activators | actives 0.13% (n = 340,000); active = well fitted activation curve with a large enough effect; inconclusive = small, poorly fitted or top-dose-only effect, or another doubt; inactive = no such curve, though single readings can be large or run the other way; cell line not stated here;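 note: phosphodiesterase inhibitor Ro 20-1724 added with compounds to block cAMP breakdown; potency is the fitted concentration of half-maximal effect; nearly all actives have a fitted effect of over 60% in size; about a fifth of the inactives were tested at one dose only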
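Cells stably selected in G418 were plated at 2000/well, grown 16-24 hr, then given compounds in DMSO with the PDE inhibitor […] (300 uM solution added) for 30 min at 37C; cAMP was read by HTRF.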
TRPV1 potentiator: HTS Assay for Compounds that Act as Potentiators of the Vanilloid Receptor 1; Transient receptor potential cation channel subfamily V member 1 (Homo sapiens), Q8NER1; actives 0.02% (n = 320,000); potentiation, % at 8.33 µM; AID 540277, 2011; TRPV1-expressing cells, Fluo-8 calcium influx, capsaicin EC20 potentiation; host cell line not named in the record; control for the full effect not named in the record; active means potentiation above 80%; inconclusive means 30% to 80%; inactive means below 30%; note: 0% is about no effect
Target sequence (Q8NER1 whole entry, looked up): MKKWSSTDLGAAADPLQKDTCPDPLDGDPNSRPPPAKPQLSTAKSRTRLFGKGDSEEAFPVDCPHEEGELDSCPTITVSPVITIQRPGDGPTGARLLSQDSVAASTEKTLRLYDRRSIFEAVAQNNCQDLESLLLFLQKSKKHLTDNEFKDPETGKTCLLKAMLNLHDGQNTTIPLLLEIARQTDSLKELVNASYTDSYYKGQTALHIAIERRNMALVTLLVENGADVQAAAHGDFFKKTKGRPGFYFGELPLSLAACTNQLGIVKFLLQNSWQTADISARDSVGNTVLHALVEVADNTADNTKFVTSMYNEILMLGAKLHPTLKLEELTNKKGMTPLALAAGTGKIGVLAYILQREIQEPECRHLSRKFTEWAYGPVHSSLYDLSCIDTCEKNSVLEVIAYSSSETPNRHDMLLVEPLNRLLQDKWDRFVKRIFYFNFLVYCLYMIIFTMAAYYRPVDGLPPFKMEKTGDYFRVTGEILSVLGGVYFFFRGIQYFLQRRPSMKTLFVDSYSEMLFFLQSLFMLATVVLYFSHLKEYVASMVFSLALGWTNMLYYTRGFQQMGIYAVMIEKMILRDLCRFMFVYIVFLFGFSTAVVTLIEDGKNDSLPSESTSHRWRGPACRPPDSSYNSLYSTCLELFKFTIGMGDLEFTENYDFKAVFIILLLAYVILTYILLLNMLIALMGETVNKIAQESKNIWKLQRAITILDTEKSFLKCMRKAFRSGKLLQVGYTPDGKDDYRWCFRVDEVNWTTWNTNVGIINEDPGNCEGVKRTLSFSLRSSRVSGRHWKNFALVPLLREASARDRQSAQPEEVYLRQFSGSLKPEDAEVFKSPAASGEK
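TRPV1-expressing cells were cultured overnight at 35.5C and loaded with Fluo-8 calcium dye for 40 to 90 min at room temperature. After a 10 s baseline, compound was added and calcium influx was read kinetically for 3 min (ex 480/em 520 nm).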
gsp antag: qHTS for Antagonists of gsp, the Etiologic Mutation Responsible for Fibrous Dysplasia/McCune-Albright Syndrome: qHTS; gsp-mutant cells, cAMP HTRF, 30 min; control for the full effect not named in the record; Potency, µM (top dose mostly 76.9 µM), for inactives: at the highest dose activity change, negative = inhibition, usual class: inhibitors; actives 0.4% (n = 340,000); active = falling curve of any shape with a large fitted effect; inconclusive = falling curve, mostly with a smaller effect; inactive = flat or rising curve; cell line not stated here;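 note: intracellular cAMP measured with PDE inhibitor Ro 20-1724 present during compound exposure; potency is the fitted concentration of half-maximal effect; % is set by controls: 0 for no effect and ±100 for the full control effect; nearly all actives have a fitted effect of over 65% in size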
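G418-selected cells were plated in DMEM/10% FBS for 16-24 h at 37C, then treated with compounds plus the PDE inhibitor […] (300 uM solution added) for 30 min at 37C. Intracellular cAMP was measured by HTRF after 30 min lysis at room temperature.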
ClpP mod: qHTS Assay for Activators of ClpP | purified B. subtilis ClpP, FRET peptide cleavage, 20 min | Potency, µM (top dose mostly 57.5 µM), without a hit: at the top dose activity change, negative = active | actives 1.9% (n = 340,000) | AID 651965, 2013; active = well fitted falling curve with a large enough effect; inconclusive = small, poorly fitted or top-dose-only effect; inactive = no such curve, though single readings can be large or run the other way; note: potency is the fitted concentration of half-maximal effect; the source files actives as falling curves though it sought activators and does not explain the sign; nearly all actives have a fitted effect of over 65% in size; many hits overshoot -100%
Target sequence (P80244 whole entry, looked up): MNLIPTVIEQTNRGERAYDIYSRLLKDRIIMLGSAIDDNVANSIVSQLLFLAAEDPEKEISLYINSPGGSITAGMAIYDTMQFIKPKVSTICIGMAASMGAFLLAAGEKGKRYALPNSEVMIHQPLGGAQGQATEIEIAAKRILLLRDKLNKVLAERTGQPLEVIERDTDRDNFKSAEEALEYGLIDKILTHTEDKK
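ClpP 10 microg/mL final, pH 8 Tris/KCl buffer with BSA, glycerol, Tween-20; compound pinned in; FRET-FV substrate; RT 20 min; Ex320/Em430; ΔFRET vs ADEP 5.8 microM, DMSO, no enzyme.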
CtBP-E1A inh: qHTS Assay for Inhibitors of the CtBP/E1A Interaction; actives 0.49% (n = 340,000); activity change, % (test concentration not listed); AlphaScreen GST-E1A/His-CtBP binding, 1536-well; stronger effect = lower value; control for the full effect not named in the record; AID 651724, 2012; in the data active means activity change below about -65%; inconclusive means about -30% to -65%; inactive means above about -30%; note: % is set by controls: 0 for no effect and ±100 for the full control effect; compound concentration not given in the record
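Homogeneous bead-based format: GST-tagged E1A captured on glutathione donor beads, His-tagged CtBP on nickel acceptor beads; compounds precede bead addition by 2 h at 37 °C.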
The depositor's hits bear a star; ? = inconclusive; . = not tested or not shown; & = joins results of further samples; [ ] = remark or other dose. Not a hit list; 5.3% or so of the library scored in one or more.

1	CCCCCCn1c(=O)n2n(c1=O)C[C@]1(OC(=O)NC3CCCC3)CN(S(=O)(=O)c3ccc(C)cc3)C[C@]1(O)C2
2	COc1ccc(C)cc1S(=O)(=O)NCCC1=CCCCC1
3	O=C(CSc1nnc(NC2CC2)s1)NN1C(=O)NC2(CCCCC2)C1=O
4	O=C(CCc1nnc(Cc2cccc(C(F)(F)F)c2)o1)NCCc1ccccc1F
5	CCc1ccc(NC(=O)N[C@H](C(=O)O)C(C)CC)cc1 (some centres undefined)
6	Cc1ccccc1N(CC(=O)NCCc1ccccc1)C(=O)c1csnn1
7	COc1cccc(C(=O)Nc2ccc(NC(=O)C3CC3)nc2)c1
8	CCOC(=O)Cn1c(=O)c2c(nc(Br)n2CC(=O)OCC)n(C)c1=O

Compound	1	2	3	4	5	6	7	8
gsp antag	.	-3%	12%	3%	6%	-2%	-9%	-10%
TRPV1 potentiator	.	-19	3	-25	-12	-2	-1	4
gsp ag	-34%	-72%[inhibitor]	-89%[inhibitor]	-3%	27%[15.4 µM]	-20%	-8%	-5%
ClpP mod	0.2%	0.5%	2.4%	2.5%	.	.	.	1.4%
CtBP-E1A inh	1	8	6	5	12	2	-9	10
Sfp inh	.	-10%	.	27%	?	16%	14%	10%
Menin-MLL FL inh	.	-3.7	.	-0.1	?	.	5.7	0.7

9	COC(=O)/C=C/COc1ccccc1[N+](=O)[O-]
10	Cc1ccc(NC2=NC(=S)N(CC#N)C23CCCCC3)cc1
11	CCOc1ccc(C2CC(c3ccc(CC)cc3)n3nc(N)nc3N2)cc1 (centres undefined)
12	O=C(Nn1cnnc1)c1ccc(OC(F)(F)C(F)C(F)(F)F)cc1 (centres undefined)
13	Cc1ccc(-c2nc(CS(=O)CC(=O)NCCCc3ccccc3)c(C)o2)cc1 (centres undefined)
14	Cc1ccc(C(O)(C(=O)NNc2ccc3ccccc3n2)c2ccc(C)cc2)cc1
15	COC(=O)c1cc(OC)c(OC)cc1NC(=S)NC(=O)c1ccco1
16	CCN(CC(=O)Nc1ccc2c(c1)OC(F)(F)O2)Cc1nc2ccccc2c(=O)[nH]1

Compound	9	10	11	12	13	14	15	16
gsp antag	7%	-2%	3%	-10%	-9%	11%&-9%	-21%	2%
TRPV1 potentiator	8	7	?	5	23	7&-3	1	-4
gsp ag	1%	?	3%	26%	-1%	-3%&-18%	9%	6%
ClpP mod	-0.4%	1.7%	-14%	-3.6%	-4.7%	-1.4%&-3.3%	0.3%	-0.4%
CtBP-E1A inh	.	.	0	0	3	3&-1	-15	5
Sfp inh	3%	10%	?	20%	-4%	22%&-3%	-25%	-16%
Menin-MLL FL inh	-3.4	-1.1	0.0	-1.6	-2.1	1.6&1.4	-3.8	-0.1

17	COc1ccc(N2C(=O)CC(N3CCN(c4ccc(C(=O)c5cccnc5)cc4)CC3)C2=O)cc1 (centres undefined)
18	Cc1cnc(CNC(=O)c2ccc3oc(Cc4ccccc4)nc3c2)[nH]1
19	Cc1nn(-c2ccccc2)c(N)c1C1(O)C(=O)Nc2ccc([N+](=O)[O-])cc21 (centres undefined)
20	COc1ccc(C2C(C(=O)c3sc(C)nc3C)=C(O)C(=O)N2CCCn2ccnc2)cc1 (centres undefined)
21	COc1cccc(S(=O)(=O)NCc2ccc(C(=O)N3CCN(Cc4ccccc4)CC3)cc2)c1
22	C/C(=N\NC(=O)C(=O)Nc1ccc(C)cc1)c1ccncc1
23	O=C(Nc1cccc(S(=O)(=O)N2CCCC2)c1)c1ccncc1
24	CCOc1c(Nc2cccc(Cl)c2)c(=O)c1=O

Compound	17	18	19	20	21	22	23	24
gsp antag	4%	8%	5%	14%	-24%	3%	-2%	2%
TRPV1 potentiator	2	?	21	.	2	-1	-1	-5
gsp ag	-17%	?	-1%	?	-47%[inhibitor]	-8%	?	0%
ClpP mod	-0.9%	-2.4%	1.1%	0.6%	-0.7%	-3.0%	0.8%	1.3%
CtBP-E1A inh	4	-20	4	1	3	-15	6	-3
Sfp inh	7%	11%	13%	.	17%	14%	19%	7%
Menin-MLL FL inh	-0.3	4.0	-1.1	.	.	6.4	.	-6.8

A different layout for some results above:
Sequence of screens: gsp antag | TRPV1 potentiator | gsp ag | ClpP mod | CtBP-E1A inh | Sfp inh | Menin-MLL FL inh
22	C/C(=N\NC(=O)C(=O)Nc1ccc(C)cc1)c1ccncc1
→ 3% | -1 | -8% | -3.0% | -15 | 14% | 6.4
23	O=C(Nc1cccc(S(=O)(=O)N2CCCC2)c1)c1ccncc1
→ -2% | -1 | ? | 0.8% | 6 | 19% | .

Next compounds follow:
25	CC(C)NC(=S)NN(c1ccccc1)c1ccccc1
26	Cc1cc(=O)oc2cc(OC(C)C(=O)NCC3CCC(C(=O)O)CC3)c(Cl)cc12 (centres undefined)
27	COCCCNC(=S)NC1CC2CCC(C1)N2Cc1ccccc1 (centres undefined)
28	COc1cc(C(=O)NCc2ccc(OCCN(C)C)cc2)cc(OC)c1OC
29	O=C(Nc1cc(C(F)(F)F)ccc1-n1cncn1)c1ccc(Br)cc1
30	COc1ccccc1NS(=O)(=O)c1cc(C(=O)NCc2cccnc2)ccc1C
31	COc1cccc(NC(=O)COc2ncnc3sc(C)c(C)c23)c1
32	C(#CCN1CCCC1)CC(c1ccccc1)c1ccccc1

Compound	25	26	27	28	29	30	31	32
gsp antag	14%	-1%	10%	0%	14%	2%	6%	15%
TRPV1 potentiator	?	9	-3	-9	-58	-24	3	-6
gsp ag	-31%[inhibitor]	.	-7%[15.4 µM]	.	-22%	-2%[15.4 µM]	?	1%[15.4 µM]
ClpP mod	-3.5%	-14%	.	0.3%	-5.2%	-4.2%	-2.8%	.
CtBP-E1A inh	2	-7	-10	5	6	0	-5	-13
Sfp inh	-11%	12%	6%	-7%&10%	9%	.	17%	5%
Menin-MLL FL inh	2.5	-3.5	0.5	-6.0	-0.8	.	-2.3	-0.1

33	Cc1noc(C)c1COc1cccc(C(=O)NCCc2c[nH]c3ccccc23)c1
34	COc1ccccc1C/C(N)=N/OC(=O)COc1cccc(C)c1
35	COc1ccc(NC2=CC(=O)N(C)C2=O)cc1
36	c1cncc(C(c2nnnn2C2CCCC2)N2CCCC2)c1 (centres undefined)
37	O=C(Nc1cc(C(F)(F)F)ccc1N1CCOCC1)c1ccc(F)cc1
38	CCN1CCN(Cc2ccc(NC(=O)c3cc(NC(=O)N4CCNC4=O)cc(OC)c3)cc2C(F)(F)F)CC1
39	COC(=O)c1c(NC(=S)NN2CCN(C)CC2)sc2c1CCC(C)C2 (centres undefined)
40	Cc1ccc(NC(=O)CCN2CCN(C/C=C/c3ccccc3)CC2)cc1C

Compound	33	34	35	36	37	38	39	40
gsp antag	-20%	-16%	7%	8%	-2%	6%	.	3%
TRPV1 potentiator	-4	3	-15	-25	2	?	-3	3
gsp ag	-40%[inhibitor]	-34%	-14%[15.4 µM]	-29%	-1%	-46%&-4%[inhibitor]	16%[15.4 µM]	-26%
ClpP mod	1.8%	-4.6%	-3.3%	-0.7%	-1.7%	0.2%&0.5%	.	-1.9%
CtBP-E1A inh	4	-21	-3	3	2	2&-4	1	-1
Sfp inh	23%	1%	-22%	7%	4%	5%	?	89µM*
Menin-MLL FL inh	-2.2	-0.7	3.6	1.4	4.8	2.4	-0.1	3.4

41	COc1ccc(Cc2nnc(-c3ccccc3)o2)cc1
42	COc1cccc(CN2CCCC(C(=O)Nc3ccc(-c4cscn4)cc3)C2)c1 (centres undefined)
43	O=C(c1cc(-c2ccco2)nc2ccccc12)N(Cc1nnc(-c2ccc(Cl)cc2)o1)C1CC1
44	CCCN(CCC)C(=O)Cc1coc2ccc3ccccc3c12
45	CCOC(=O)C1CCCN(Cc2nc(CC3CC3)no2)C1 (centres undefined)
46	CCOC(=O)c1oc2ccccc2c1COC(=O)CNC(=O)c1ccccc1F
47	COc1ccc(NC(=O)CSc2nnc(Cc3ccc(C)cc3)c(=O)n2N)cc1
48	CC(=O)N1c2ccc(S(=O)(=O)NCCc3ccc(S(N)(=O)=O)cc3)cc2CC1C (centres undefined)

Compound	41	42	43	44	45	46	47	48
gsp antag	10%	-1%	-19%	-32%	-4%	.	9%	-7%
TRPV1 potentiator	-27	-5	5	-8	-8	.	12	-3
gsp ag	-21%	0%	2%	0%	-5%[15.4 µM]	-34%[inhibitor]	-7%[15.4 µM]	1%
ClpP mod	.	-3.7%	28µM*	-0.8%	.	-12%	.	-0.1%
CtBP-E1A inh	4	-1	-10	2	-1	5	5	.
Sfp inh	19%	3%	.	18%	3%	.	.	0%
Menin-MLL FL inh	2.6	.	.	1.6	-0.8	.	.	.

49	CC(C)C(NS(=O)(=O)c1ccccc1)C(=O)N1CCCCCC1 (centres undefined)
50	CCCNC(=O)NC(=O)c1cnccc1C(F)(F)F
51	COc1cc(/C=N/N=C2/SCC(=O)N2c2ccc(O)cc2)ccc1O
52	O=C1OCCC1Sc1nnc(-c2ccccc2)o1 (centres undefined)
53	CCN(CC)Cc1cc(C(C)=O)ccc1O
54	CCOc1cccc(N(C(=O)C2COc3ccccc3O2)C(C(=O)NC2CCCCC2)c2ccc(O)cc2)c1 (centres undefined)

Compound	49	50	51	52	53	54
gsp antag	-4%	4%	.	8%	-2%	-20%
TRPV1 potentiator	?	-3	5	-3	-4	-3
gsp ag	14%[15.4 µM]	14%	10%[15.4 µM]	-34%[inhibitor]	?	-33%[inhibitor]
ClpP mod	-2.8%	.	.	-3.0%	-1.8%	2.3%
CtBP-E1A inh	-2	11	0	3	1	20
Sfp inh	15%	16%	7%	8%	15%	10%
Menin-MLL FL inh	1.8	2.9	0.2	0.1	-1.8	-0.8

Source: PubChem BioAssay
